High-throughput results deposited in PubChem BioAssay by several laboratories.
PABP polyA inh = PABP-poly(A) binding inhibition | PABP-poly(A) RNA binding, fluorescence polarization | inhibition, % at 35 µM | 1% of 290,000 active;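 active = 50% or more with normal probe brightness, or confirmed in later tests; inconclusive = above 50% with abnormal brightness, or retests that disagree; inactive = below 50% or failed in later tests; about a fifth of its hits are not listed in these tables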;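 note: calls also rest on retests at 20 µM and on dose response follow-up; controls were probe without protein and protein plus probe with vehicle; some compounds called inactive have numbers as strong as hits; many hits fall short of the cut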
Target sequence (P11940 whole entry, looked up): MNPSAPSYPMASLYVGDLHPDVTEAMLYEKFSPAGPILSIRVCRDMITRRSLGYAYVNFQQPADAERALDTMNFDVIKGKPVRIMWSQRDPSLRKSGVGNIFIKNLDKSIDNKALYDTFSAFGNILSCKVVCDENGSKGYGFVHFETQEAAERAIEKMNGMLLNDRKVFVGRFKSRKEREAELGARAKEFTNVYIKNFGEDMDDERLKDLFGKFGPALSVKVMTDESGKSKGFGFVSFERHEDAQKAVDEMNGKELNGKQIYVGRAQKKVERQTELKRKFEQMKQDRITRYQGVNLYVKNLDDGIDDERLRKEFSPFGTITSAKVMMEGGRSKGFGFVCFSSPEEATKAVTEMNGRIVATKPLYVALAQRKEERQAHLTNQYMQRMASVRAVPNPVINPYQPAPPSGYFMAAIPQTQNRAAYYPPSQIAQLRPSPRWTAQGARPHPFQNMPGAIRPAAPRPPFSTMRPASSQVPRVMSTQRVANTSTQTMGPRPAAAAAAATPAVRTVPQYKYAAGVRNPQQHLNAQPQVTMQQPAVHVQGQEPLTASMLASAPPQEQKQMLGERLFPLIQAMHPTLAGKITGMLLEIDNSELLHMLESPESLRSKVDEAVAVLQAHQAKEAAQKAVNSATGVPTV
Rce1 inhib = inhibitors of yeast Ras-converting enzyme; Q03530; yeast membranes, quenched prenylated peptide cleavage fluorescence; calls only; 0.27% of 290,000 active; AID 2563;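 active = fall in fluorescence gain of 50% or more versus controls, with final raw signal at or below 3038400; inconclusive = same 50% fall but final raw signal above 3038400; inactive = fall in fluorescence gain under 50%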;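 note: plate controls were neutral control wells for no effect and wells lacking membranes for full effect; tested at 10 µM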
Target sequence (Q03530 whole entry, looked up): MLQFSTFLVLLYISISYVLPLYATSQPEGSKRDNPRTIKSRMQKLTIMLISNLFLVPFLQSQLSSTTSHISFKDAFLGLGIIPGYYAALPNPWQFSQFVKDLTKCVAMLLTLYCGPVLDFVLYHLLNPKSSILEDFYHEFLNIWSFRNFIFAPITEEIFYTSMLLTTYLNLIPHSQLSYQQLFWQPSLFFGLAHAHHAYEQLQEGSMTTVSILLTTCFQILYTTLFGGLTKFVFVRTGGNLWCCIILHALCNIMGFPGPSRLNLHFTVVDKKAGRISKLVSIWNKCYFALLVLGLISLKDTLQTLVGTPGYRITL
MT1-MMP act inh = MT1-MMP (human) activation inhibition. P50281. HT1080 RFP-PRO-GFP cells, GFP/RFP ratio fluorescence, overnight; percent of plate control window, DMSO zero. GFP/RFP ratio change, % at 20 µM. 0.061% of 360,000 active;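 active = GFP/RFP ratio change of at least 30% with cell ATP level not reduced by more than half and red fluorescence within 50% of control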; note: strong numbers were not always called active
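Test system: HT1080 RFP-PRO-GFP cells; Benchmarks: DMSO and RFP-L50D-GFP cell wells; Timing: cells overnight before dosing, compound overnight, 37 °C, 5% CO2; Compound: one 20 µM compound dose with 1% DMSO; Read-out: GFP/RFP fluorescence ratio.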
UUG fidelity = modulators of start codon recognition fidelity in yeast; activity score, % at 18.7 µM; AID 602363; 0.13% of 350,000 active; S. cerevisiae UUG-firefly luciferase reporter, luminescence/redox ratio;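 active = replicate mean at a twofold rise or more, about +100% in these data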;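 note: firefly luciferase made from a UUG start codon reports start codon fidelity; reporter light over untreated wells divided by growth signal over untreated wells; some hits fall short of that in this replicate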
CSC inhib = cancer stem cell inhibition; cancer stem cell-like cells viability, luminescence; inhibition, % at 7.5 µM; 1.1% of 300,000 active;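 active = mean at 75% or more and at least half the replicates too; inconclusive = mean and replicates disagree; tested in HMLE shEcad cells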;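 note: 0% = median of negative and 100% = median of positive control wells; the first replicate is given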
HIV Env fusion = HIV envelope-mediated fusion inhibition | HeLa-JRFL Env/CEM21 cell fusion, luciferase | 1.1% of 360,000 active | inhibition, % at 12.3 µM;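 active = mean replicate inhibition score of at least 50 and every replicate individually at or above 50; inconclusive = only one of the two criteria met; inactive = mean below 50 and not all replicates reaching 50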;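 note: 0% = plate neutral controls and 100% = maraviroc near 300 nM; one replicate is shown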
eIF4H FP inh = inhibitors of RNA binding by human eIF4H; Q15056; eIF4H fluorescence polarization binding assay; inhibition, % at 35 µM; 0.94% of 290,000 active;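 active = 50% or more with normal probe brightness, or confirmed in later tests; inconclusive = above 50% with abnormal brightness, or retests that disagree; inactive = below 50% or failed in later tests; about a fifth of its hits are not listed in these tables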;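 note: calls also rest on retests at 20 µM and on dose response follow-up; 0% = protein and probe with vehicle and 100% = probe without protein; strong numbers were not always called active; many hits fall short of the cut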
MT1-MMP act inh RFP = recorded beside MT1-MMP act inh, whose call it bears; RFP signal change, %; measured here: RFP expression control read;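 0 = vehicle wells; hits needed this value within 50% of zero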
An asterisk follows results filed as active; i = inactive; u = inconclusive; x = not tested or not shown; & = joins results of further samples. Some of the compounds tested, so the mix of outcomes need not match the whole.

[1] Cc1ccc(C(=O)Nc2ccc(Cc3ccncc3)cc2)cc1[N+](=O)[O-]
[2] CCOC(=O)CN1C(=O)S/C(=C/c2ccc(N3CCCCC3)o2)C1=O
[3] CCOC(=O)N1CCC(NC(=O)c2cc(S(=O)(=O)N3CCc4ccccc43)cn2C)CC1
[4] COc1ccc(C(=O)c2cnc[nH]2)cc1OC
[5] COc1ccccc1CC(=O)NNS(=O)(=O)c1ccccc1[N+](=O)[O-]
[6] Cn1c(SCC(=O)c2c(N)n(C)c(=O)n(C)c2=O)nnc1-c1ccccc1
[7] Cc1ccc(C(=O)NCc2nnc3c(C(F)(F)F)cc(Cl)cn23)o1
[8] O=C1c2ccccc2S(=O)(=O)N1Cc1nc2ccccc2s1

assay / compound,1,2,3,4,5,6,7,8
PABP polyA inh,1,u,-6,4,4,6,10,-5
Rce1 inhib,i,i,i,i,i,i,i,i
MT1-MMP act inh,-4,-214,6,2,0,3,-1,0
MT1-MMP act inh RFP,-14,-2,-3,3,0,6,3,4
UUG fidelity,x,-15,19,-20,x,-7,-9,x
CSC inhib,23,0,2,-13,-12,2,-8,-2
HIV Env fusion,x,-39,21,3,13,-8,-4,x
eIF4H FP inh,-5,u,-11,-4,-5,5,15,-8

2 records drawn at random from those above, as already listed:
[1] Cc1ccc(C(=O)Nc2ccc(Cc3ccncc3)cc2)cc1[N+](=O)[O-]
[4] COc1ccc(C(=O)c2cnc[nH]2)cc1OC

assay / compound,1,4
PABP polyA inh,1,4
Rce1 inhib,i,i
MT1-MMP act inh,-4,2
MT1-MMP act inh RFP,-14,3
UUG fidelity,x,-20
CSC inhib,23,-13
HIV Env fusion,x,3
eIF4H FP inh,-5,-4

The listing continues.
[9] CCCN(C(=O)c1cc(-c2ccco2)nc2ccccc12)c1c(N)n(Cc2ccccc2)c(=O)[nH]c1=O
[10] O=C(N/N=C/c1ccccc1O)c1ccc2c(c1)OCO2
[11] COc1ccc(CC(=O)OCC(=O)Nc2ncc(Cl)cc2Cl)cc1OC
[12] Cc1cc(C)c2nc(N3CCC(C(=O)N4CCN(C(=O)c5ccco5)CC4)CC3)sc2c1
[13] CCCC(=O)OCC(=O)Nc1cc([N+](=O)[O-])ccc1OC
[14] CO[C@H](C(=O)N(C)C[C@@H]1OCc2ccccc2-c2c(n(C)c3ccccc23)C(=O)N([C@H](C)CO)C[C@@H]1C)c1ccccc1
[15] CCOC(=O)C(Cc1ccccc1)C(=O)Nc1cccc2ccccc12 (stereo unspecified)
[16] Cn1c(SCC(=O)Nc2ccccc2)nnc1-c1ccc2nonc2c1

assay / compound,9,10,11,12,13,14,15,16
PABP polyA inh,x,0,13,-3,-4,x,-11,3
Rce1 inhib,i,i,i,i,i,x,i,i
MT1-MMP act inh,2,-4,-1,8,-1,-3,-1,3
MT1-MMP act inh RFP,8,-4,5,-3,0,-2,4,3
UUG fidelity,x,-36,-1,-5,x,-14,6,x
CSC inhib,-2,30,0,x,8,x,-22,-5
HIV Env fusion,-44,-13,3,29,-15,78*,-50,-4
eIF4H FP inh,x,5,10,-2,7,x,-4,11

[17] Cc1ccc(CC(=O)NCCCn2ccnc2)cc1
[18] CCCOc1ccc(-c2c(C(=O)N/N=C/c3cccnc3)nnn2-c2nonc2N)cc1
[19] Cc1ccccc1-n1c(SC2CCOC2=O)nnc1-c1ccncc1 (stereo unspecified)
[20] Cc1cc(C)c(S(=O)(=O)Nc2ccc(C(=O)O)cc2)cc1S(=O)(=O)Nc1ccc(C(=O)O)cc1
[21] C=CCNC(=S)/N=c1/ccccn1CC
[22] CN(CC(=O)Nc1ccc(Cl)c(C(F)(F)F)c1)C(=O)Cc1c[nH]c2ccccc12
[23] CCOc1ccc(Br)cc1S(=O)(=O)Nc1ccc(NC(=O)c2ccccc2F)cc1
[24] COc1ccc([C@H]2C[C@@H](O)[C@H](n3cc(-c4ccc(F)cc4)nn3)CN2C(=O)C2CCCCC2)cc1

assay / compound,17,18,19,20,21,22,23,24
PABP polyA inh,-7,x,-4,x,-2,x,8,x
Rce1 inhib,i,i,i,i,i,i,i,x
MT1-MMP act inh,-1,0,5,-1,0,7,4,1
MT1-MMP act inh RFP,3,2,7,0,1,-1,1,1
UUG fidelity,x,-8,-5,6,x,0,x,2
CSC inhib,-5,-5,-11,-6,-8,7,3,x
HIV Env fusion,-7,-3,6,4,-6,-193,9,-27
eIF4H FP inh,-6,x,7,x,-2,x,5,x

[25] COc1ccc(C(C(=O)NC2CCCCC2)N(C(=O)c2snc(C(N)=O)c2N)c2ccccc2OC)cc1 (stereo unspecified)
[26] O=C(c1ccco1)N1CCN(S(=O)(=O)c2ccc3[nH]c(=O)oc3c2)CC1
[27] c1ccc(SCc2cn(C[C@H]3CC[C@@H]([C@@H]4CC[C@H](Cn5cc(CSc6ccccc6)nn5)O4)O3)nn2)cc1
[28] COc1ccccc1-c1cc(C(=O)N2CCN(c3ccc(F)cc3)CC2)no1
[29] O=C(C1=C(O)C(=O)N(CC2CCCO2)C1c1cccc(O)c1)c1ccco1 (stereo unspecified)
[30] CC(C)(C)c1ccc(C(=O)N2CCC2(C)C(=O)NCc2ccc3c(c2)OCO3)cc1 (stereo unspecified)
[31] CC(C)OP(=O)(OC(C)C)C(Nc1ccccc1)c1cccnc1 (stereo unspecified)
[32] O=S1(=O)CCOC[C@H](CC2CCCCC2)N1Cc1cccc(F)c1

assay / compound,25,26,27,28,29,30,31,32
PABP polyA inh,7,-4,14,1,2,x,11,8
Rce1 inhib,i,i,i,i,i,x,i,i
MT1-MMP act inh,-1,2,0,-1,2,11,-1,2
MT1-MMP act inh RFP,-2,0,-6,0,5,-14,2,0
UUG fidelity,-14,-13,-17,-20,x,12,-12,-8
CSC inhib,-6,0,-5,-11,x,x,-9,-7
HIV Env fusion,6,x,7,10,1,8,4,10
eIF4H FP inh,-8,6,2,4,-13,x,-3,5

[33] Cc1ccc2oc(C(=O)NC3CCS(=O)(=O)C3)c(C)c2c1 (stereo unspecified)
[34] Cc1ccc2nccc(C(=O)N3CCCC(N4CCN(c5ccc(F)cc5)CC4)C3)c2c1 (stereo unspecified)
[35] O=C(NC(Sc1ccc(Cl)cc1)C(=O)O)c1ccccc1 (stereo unspecified)
[36] CCCCN(C)C(=O)c1nc2ccccn2c1CN1CCC[C@H]1C(=O)OC
[37] COc1ccc(N(CC(=O)Nc2cccc(C)c2)S(=O)(=O)c2ccc(C)cc2)cc1OC
[38] COc1ccc(NS(=O)(=O)c2cc(NC(=O)Cc3c(F)cccc3Cl)ccc2OC)cc1
[39] C[C@H](CO)N1C[C@H](C)[C@H](CN(C)S(C)(=O)=O)OCc2cnnn2CCCC1=O
[40] Cc1ccccc1CN1C(=O)/C(=C\c2ccc(C(=O)NCCN3CCOCC3)cc2)Sc2ccccc21

assay / compound,33,34,35,36,37,38,39,40
PABP polyA inh,0,1,x,-7,3,x,x,x
Rce1 inhib,i,i,x,i,i,x,x,i
MT1-MMP act inh,5,0,-5,5,1,7,15,3
MT1-MMP act inh RFP,6,-8,-2,1,-1,-2,3,-7
UUG fidelity,-12,-14,-9,-14,-25,-5,-4&11,-25
CSC inhib,x,-5,x,3,-16,-13,x,26
HIV Env fusion,-4,-10,-20,-1,-22,-9,-46,-4
eIF4H FP inh,-8,-8,x,-12,-4,x,x,x

[41] CN(CC1CCCO1)S(=O)(=O)c1ccc(C(=O)N2CCN(c3ccccc3)CC2)cc1 (stereo unspecified)
[42] c1ccc(-c2ncnc3cc4n(c23)CCC4)cc1
[43] Cc1ccccc1OCC(=O)OCC(=O)NCCc1ccccc1
[44] CC1CC(C)(C)CC2(C1)NC(=O)N(CC(=O)NCCc1c[nH]c3ccccc13)C2=O (stereo unspecified)
[45] O=C1C=C(c2ccc(C(=O)O)cc2)C[C@@H](c2ccc(Cl)cc2)C1
[46] COc1ccc(C(=O)CCC(=O)NCCc2c[nH]c3ccccc23)cc1
[47] C=CCNC(=S)NNC(=O)COc1cccc(Cl)c1
[48] COc1ccccc1NC(=O)/C(C#N)=C/c1cccnc1

assay / compound,41,42,43,44,45,46,47,48
PABP polyA inh,-1,2,x,0,x,0,0,6
Rce1 inhib,x,x,x,i,x,i,i,i
MT1-MMP act inh,-3,-4,-3,0,1,0,-2,-4
MT1-MMP act inh RFP,1,-3,1,0,2,1,0,4
UUG fidelity,x,-20,-5,x,-13,-1,x,-6
CSC inhib,-10,-8,2,2,-15,-27,-3,-11
HIV Env fusion,-2,39,-1,3,-9,15,x,x
eIF4H FP inh,10,1,x,0,x,-9,5,-8

Continued; the last 4 above are carried over.
[45] O=C1C=C(c2ccc(C(=O)O)cc2)C[C@@H](c2ccc(Cl)cc2)C1
[46] COc1ccc(C(=O)CCC(=O)NCCc2c[nH]c3ccccc23)cc1
[47] C=CCNC(=S)NNC(=O)COc1cccc(Cl)c1
[48] COc1ccccc1NC(=O)/C(C#N)=C/c1cccnc1
[49] CN(CCOc1ccc(Cl)cc1)C(=O)c1cc([N+](=O)[O-])ccc1N1CCOCC1
[50] COC(=O)Cn1ncc2c3ccccc3n(C)c2c1=O
[51] Cc1nc(Cl)c2c(n1)N(CC(N)=O)C(=O)CO2
[52] O=C(Cc1ccc(NC(=O)C2CCCN(C(=O)c3ccccc3)C2)cc1)Nc1ccc(C(=O)N2CCOCC2)cc1 (stereo unspecified)
[53] O=C1OCCC1Sc1nc2ccccc2c(=O)n1Cc1ccc(F)cc1 (stereo unspecified)
[54] Cc1cc(C)nc(-n2nc(C)cc2NC(=O)c2cccc(S(=O)(=O)N(C)C)c2)n1
[55] Nc1nc(SCC(=O)Nc2ccc(Cl)cc2C(F)(F)F)n[nH]1
[56] CC(=O)c1ccc(NC(=S)N2CCN(CCN3C(=O)c4cccc5cccc(c45)C3=O)CC2)cc1

assay / compound,45,46,47,48,49,50,51,52,53,54,55,56
PABP polyA inh,x,0,0,6,x,1,-2,x,-12,5,-6,1
Rce1 inhib,x,i,i,i,i,i,x,x,i,i,i,i
MT1-MMP act inh,1,0,-2,-4,-3,3,0,-1,2,x,2,-3
MT1-MMP act inh RFP,2,1,0,4,-9,8,-2,3,4,x,1,-3
UUG fidelity,-13,-1,x,-6,6,-19,-19,10,x,x,-21,-4
CSC inhib,-15,-27,-3,-11,3,15,-4,x,-2,-15,x,14
HIV Env fusion,-9,15,x,x,33,x,4,-13,12,x,x,5
eIF4H FP inh,x,-9,5,-8,x,1,9,x,10,-10,-5,7

[57] CCOC(=O)c1sc(NC(C)=O)c(C(=O)OCC)c1C
[58] Cc1cc(Cl)c(OCCOCCN2CCC(C)CC2)c(Br)c1
[59] CCOC(=O)c1cnn2c(C)cc(-c3ccccc3)nc12
[60] COc1ccc(-c2noc(CCCC(=O)NC3CCCCC3)n2)cc1OC
[61] COC(=O)c1cc(S(=O)(=O)N(C)Cc2ccco2)c[nH]1

assay / compound,57,58,59,60,61
PABP polyA inh,-16,-5,-8,3,4
Rce1 inhib,i,i,i,i,i
MT1-MMP act inh,-2,6,2,0,3
MT1-MMP act inh RFP,-7,6,5,-2,1
UUG fidelity,-7,x,x,-11,-11
CSC inhib,0,40,-3,5,1
HIV Env fusion,x,x,-34,0,-4
eIF4H FP inh,-4,-10,-3,-9,6
